# HCMV UL50-53 inh = inhibitors of HCMV UL50-UL53 interaction, biochemical, HTRF. hit rate 0.15% among 190,000. normalized percent inhibition. HCMV UL50-UL53 nuclear egress complex (human cytomegalovirus). inhibition, % (concentration not given with the values). AID 1918969, 2023;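 active means both replicates at 50% or more, plus weaker picks with an unusually low signal ratio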;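 further: stock transfer was 100 nL into about 20 µL; 0% = negative control wells and 100% = wells with untagged competitor protein; inactives centre near -12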
# Sa growth 42C = S. aureus growth inhibition at 42 and 30 °C, primary screen, LtaS inhibitor project, RN4220, two temperatures; relative growth, % (concentration not given with the values); OD600, 20 h, 42 °C; active compounds read low; hit rate 0.53% among 170,000;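 active means growth at 42 °C up to 50% and 20 or more points under that at 30 °C, or under 10% at both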;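 further: 300 nL library stock went into each well; scaled to the means of positive and negative controls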
# GIV-Gai inh = inhibitors of GIV peptide binding to Galpha-i3, primary screen, biochemical, fluorescence polarization, FITC-GIV GBA peptide, rat Galphai3; 90 min; active compounds read low; scaled: aluminum fluoride 0%, vehicle 100%; percent of control (FP), % (concentration not given with the values); hit rate 0.42% among 210,000;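 active means replicate mean at 85% of control or lower, very high polarization wells dropped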;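 further: wells of about 15 µL received 100 nL stock; the first replicate is given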
# Target sequence (P08753 whole entry, looked up): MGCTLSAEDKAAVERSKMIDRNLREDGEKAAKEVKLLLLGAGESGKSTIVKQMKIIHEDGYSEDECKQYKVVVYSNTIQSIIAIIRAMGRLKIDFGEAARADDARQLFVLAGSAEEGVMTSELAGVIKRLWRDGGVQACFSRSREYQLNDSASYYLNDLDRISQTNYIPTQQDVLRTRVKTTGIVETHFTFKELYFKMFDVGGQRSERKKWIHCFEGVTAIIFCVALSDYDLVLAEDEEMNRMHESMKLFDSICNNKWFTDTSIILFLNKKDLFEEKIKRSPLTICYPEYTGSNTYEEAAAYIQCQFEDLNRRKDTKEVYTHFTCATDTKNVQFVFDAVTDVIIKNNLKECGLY
# Sa growth 42C second temp = recorded beside Sa growth 42C, whose call it bears; relative growth, %; measured here: growth at 30 °C;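 optical density after 20 h as mean of two plates; 100% = untreated growth and lower means inhibition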
# * hit, by the source's call; . = not tested or not shown; & = joins results of further samples.
SMILES,HCMV UL50-53 inh,Sa growth 42C,Sa growth 42C second temp,GIV-Gai inh
O=C(O)c1nn(CN2CCN(c3ccccc3F)CC2)c2ccccc12,-44,88,88,.
CCc1nc(C)cc(CN(C)C)c1O,-12,94,82,103
Cc1ccc(-c2csc(-c3nc(-c4ccc(Br)s4)cs3)n2)cc1,-4,95,85,100
CNc1ccc(Cl)cc1C(N)=O,.,104,92,102
COC(=O)c1cc(=O)n2c(c1C(=O)c1cccs1)SCC2,-38,102,95,112
CS(=O)(=O)/C(C#N)=C/c1c(-c2ccccc2)nc2n1CCS2,-22,110,69,102
Cc1ccc(NC(=O)C(Cc2ccccc2)NS(=O)(=O)c2cccs2)cc1Cl (configuration not stated),4,99,91,114
Cn1nc(-c2ccc(Cl)cc2)c2cc(C(=O)Nc3ccc4c(c3)OCO4)sc21,-2,119,93,98
COc1ccccc1CNC(=O)CCCCn1c(=O)c2ccccc2n(CC(=O)Nc2cccc(Cl)c2)c1=O,-30,116,88,101
COc1ccccc1N1CCN(C(=O)C2CCCN(S(=O)(=O)c3ccc4c(c3)oc(=O)n4C)C2)CC1 (configuration not stated),.,67,33,95
CCN(CC)S(=O)(=O)c1ccc(N(C(=O)Cn2nnc3ccccc32)C(C(=O)NC2CCCC2)c2ccco2)cc1 (configuration not stated),-27,117,92,106
CCC1CCCCN1C(=O)c1cc(C)on1 (configuration not stated),7,.,.,105
O=C(COc1ccccc1-c1nc(-c2ccccc2)no1)Nc1ccc([N+](=O)[O-])cc1,-14,97,82,100
CC1=C(C(=O)Nc2ccc(C)cc2)C2(CCN(C(C)C)CC2)OC1=O,11,100,103,107
CCC(=O)OC1=CN(Cc2ccccc2)S(=O)(=O)c2ccccc21,-28,100,79,99
CC(Oc1ccccc1)C(=O)OCc1nnc(-c2ccc(F)cc2)o1 (configuration not stated),-33,112,92,.
Cc1cc(C)cc(NC(=O)N2CCN(C(=O)c3nsc4ccccc34)CC2)c1,.,92,87,102
O=c1cc(-c2ccccc2)nc(Nc2ccc(F)cc2)[nH]1,-13,.,.,101
COc1ccc(NC(=O)c2nn(C)c3c2CSc2ccc(Cl)cc2-3)c(OC)c1,-24,.,.,105
S=C(NCCN1CCOCC1)NNc1ccc2ccccc2c1,-46,85,70,.
COC(=O)c1cc2sccc2n1Cc1ccc(F)cc1,.,133,102,106
COc1ccc2oc(=O)cc(CN(Cc3cccs3)C(C)C)c2c1,.,123,78,108
FC(F)(F)c1cc(-c2ccc3c(c2)OCO3)nc(=S)[nH]1,-10,71,85,104
Cc1[nH]n2c(=O)cc(-c3ccccc3)nc2c1-c1ccccc1,15,0.0*,-0.9*,108
C/C(=N\NC(=O)C(F)(F)F)c1ccccc1O,3,71,88,94
Cc1ccc2[nH]c(=O)c(-c3noc(CCC(=O)NC4CCCC4)n3)cc2c1,-18,.,.,114
CC1=C(OC(=O)c2ccccc2)C(C)(C)C(c2ccccc2)OC1=O (configuration not stated),-11,91,89,.
CC(C)c1nc(CNC(=O)c2ccccc2)no1,-2,.,.,105
CC1(C)CC(=O)C2=C(C1)Nc1ccccc1N(C(=O)C1CC1)C2c1ccco1 (configuration not stated),-13,87,81,99
COCCn1c(C)cc(O)c(C(c2ccc(Cl)cc2)N2CCCCC2)c1=O (configuration not stated),.,79,90,95
O=C1C2CC=CCC2C(=O)N1Cc1cc(=O)n2ccsc2n1 (configuration not stated),-24,119,85,.
Cc1ccc(OC(=O)c2cccc(C(=O)Oc3ccc(C)cn3)n2)nc1,3,111,99,94
CC(C)c1cc(NC2CCCC2)n2nc(-c3cccnc3)nc2n1,9,.,.,105
Cc1cccc(-c2noc(-c3cccc(NC(=O)C4CC(=O)N(c5ccccc5)C4)c3)n2)c1 (configuration not stated),-13,.,.,103
O=C(Nc1ccc(F)cc1)N1CCN2C(=O)c3ccccc3C12c1ccccc1 (configuration not stated),-17,102,79,109
NS(=O)(=O)c1ccc(CCNC(=O)c2csc3c2CCCCC3)cc1,12,.,.,100
Cc1nnc(C)n1/N=C/c1ccccn1,-7,105,80,.
O=C(c1ccc(CS(=O)(=O)Cc2ccc(Cl)cc2)o1)N1CCCCCC1,6,97,77,109
COc1ccc(S(=O)(=O)NCc2ccc(C(=O)N3CC(C)CC(C)C3)cc2)cc1 (configuration not stated),.,77,96,106
CCOc1ccc(S(=O)(=O)N2CCN(c3ccccc3)CC2)cc1C(N)=O,27,102,107,111
O=C1C(=O)N(C2CCN(C(=O)c3ccc4c(c3)OCO4)CC2)CCN1Cc1ccccc1,-24,.,.,95
Cc1ccc(NC(=O)C(=O)c2cc(C)n(-c3ccc(F)cc3)c2C)cc1C,-9,112,96,108
NC(=S)c1ccsc1,-13,89,99,.
O=C(NCCc1ccccc1)c1cnc2sc(N3CCOCC3)nn2c1=O,.,100,98,104
O=C(Nc1cccc(C(F)(F)F)c1)c1cccnc1N1CCCC1,-5,109,104,105

# Compound profiles (already shown). Order of values: HCMV UL50-53 inh | Sa growth 42C | Sa growth 42C second temp | GIV-Gai inh
# Listed for `COCCn1c(C)cc(O)c(C(c2ccc(Cl)cc2)N2CCCCC2)c1=O` (configuration not stated) : . | 79 | 90 | 95
# Listed for `FC(F)(F)c1cc(-c2ccc3c(c2)OCO3)nc(=S)[nH]1` : -10 | 71 | 85 | 104
# Listed for `CS(=O)(=O)/C(C#N)=C/c1c(-c2ccccc2)nc2n1CCS2` : -22 | 110 | 69 | 102
# Listed for `Cc1ccc(OC(=O)c2cccc(C(=O)Oc3ccc(C)cn3)n2)nc1` : 3 | 111 | 99 | 94
# Listed for `CCOc1ccc(S(=O)(=O)N2CCN(c3ccccc3)CC2)cc1C(N)=O` : 27 | 102 | 107 | 111

# (listing goes on)
SMILES,HCMV UL50-53 inh,Sa growth 42C,Sa growth 42C second temp,GIV-Gai inh
Cn1c(=N)n(CC(=O)c2ccc(-c3ccccc3)cc2)c2ccccc21,5,117,67,99
Cc1ccc(C)n1CCc1ccccc1,-26,84,85,.
COc1ccccc1CNC(=O)CCCn1c(=O)c2ccccc2n(Cc2ccc(C)cc2)c1=O,8,85,104,100
CCOC(=O)c1noc2ncn(CC(=O)Nc3ccc(C)c(F)c3)c(=O)c12,-31,94,94,109&104
COc1ccc(-c2c3c(nc4sc(C(=O)Nc5ccc(Cl)cc5)c(N)c24)CC(C)(C)CC3=O)cc1,-29,101,95,102
CCOC(=O)c1[nH]c2ccc(OC)cc2c1NC(=O)CN(C)C,-6,.,.,108
COc1cc(N(C)C)c([N+](=O)[O-])cc1C(=O)NCCN1CCN(c2ccccc2)CC1,-73,.,.,104
COc1ccc(CN2C(=O)c3cccnc3C2=O)cc1S(=O)(=O)NC1CC1,-26,95,91,98
Cc1nc2ccccc2n1CC(O)COc1ccc(C(=O)O)cc1 (configuration not stated),-1,114,91,101
Cc1ccccc1OCc1nnc(SCC(=O)N(Cc2ccccc2)C(C)(C)C)o1,-2,89,96,105
CCc1cccc(NC(=O)C(Cc2ccccc2)NS(=O)(=O)c2ccc3c(c2)c(=O)n(C)c(=O)n3C)c1 (configuration not stated),1,116,87,103
N=C(N)c1ccc(C(F)(F)F)cc1,-2,108,99,105
CNC(=O)c1ccc(Cn2c(SCc3ccc(C)cc3)nc3ccncc32)cc1,.,104,75,105
Cc1cc2nn(-c3ccc(F)cc3)nc2cc1NC(=O)c1cccc([N+](=O)[O-])c1C,-14,94,85,105
N#Cc1ccccc1OCC(=O)c1cccs1,-27,113,100,.

# Given as tab-separated lines: entries from further up.
Structure	HCMV UL50-53 inh	Sa growth 42C	Sa growth 42C second temp	GIV-Gai inh
CCc1nc(C)cc(CN(C)C)c1O	-12	94	82	103
NS(=O)(=O)c1ccc(CCNC(=O)c2csc3c2CCCCC3)cc1	12	.	.	100
O=C(NCCc1ccccc1)c1cnc2sc(N3CCOCC3)nn2c1=O	.	100	98	104
Cc1ccc(NC(=O)C(=O)c2cc(C)n(-c3ccc(F)cc3)c2C)cc1C	-9	112	96	108
CCOC(=O)c1noc2ncn(CC(=O)Nc3ccc(C)c(F)c3)c(=O)c12	-31	94	94	109&104

# The list goes on.
SMILES,HCMV UL50-53 inh,Sa growth 42C,Sa growth 42C second temp,GIV-Gai inh
Cc1ccc(Cl)cc1NC(=O)COC(=O)CC(C)(C)CC1=NS(=O)(=O)c2ccccc2N1,.,96,80,106
CC1CCCCN1C(=O)c1ccc2c(c1)C(=O)N(CCC1=CCCCC1)C2=O (configuration not stated),-11,101,89,99
O=C(c1ccccc1)N1CCN(C(=O)c2ccc(OC(F)(F)F)cc2)CC1,-15,103,91,.
CCOc1ccc(C=Nc2ccccc2)cc1,0,106,89,.
COc1ccc(OCCCN2C(=O)NC(C)(C)C2=O)cc1,-6,106,95,101
O=C(NCCc1ccc(Cl)cc1)C(=O)NCC(c1cccs1)S(=O)(=O)c1cccs1 (configuration not stated),.,140,95,103
O=C(O)C(=Cc1ccc(-c2cccc(Cl)c2)o1)C(=O)O,-36,79,91,.
O=C(Nc1cccnc1)c1cccc(S(=O)(=O)NCc2cccnc2)c1,-10,102,89,.
Cc1ccc(Cl)cc1NC(=O)c1cnn2c(C(F)F)cc(-c3ccccc3)nc12,-18,104,90,98&101
CCCCn1nnnc1COC(=O)/C(C#N)=C/c1ccc(N(C)C)cc1,-32,112,99,.
COc1ccc(C2CC(c3ccc(Br)cc3)=NN2C(=O)c2cccnc2)cc1 (configuration not stated),-10,.,.,106
NC(=O)COC(=O)c1ccc(Oc2ccccc2)cc1,-1,106,98,.
CCC(C(=O)O)N1C(=O)CCn2nc(C)cc21 (configuration not stated),-2,.,.,113
COc1ccc(C(=O)C[n+]2cc(-c3ccc(OC)cc3)n3c2CCCCC3)cc1,.,95,63,102
Cc1cc(C)c2oc(-c3cc(NC(=O)c4ccc(Br)o4)ccc3O)nc2c1,17,94,99,109

# 2 entries from above, as labelled records:
smiles: Cn1c(=N)n(CC(=O)c2ccc(-c3ccccc3)cc2)c2ccccc21
  HCMV UL50-53 inh = 5
  Sa growth 42C = 117
  Sa growth 42C second temp = 67
  GIV-Gai inh = 99
smiles: O=C(NCCc1ccc(Cl)cc1)C(=O)NCC(c1cccs1)S(=O)(=O)c1cccs1 (configuration not stated)
  HCMV UL50-53 inh = .
  Sa growth 42C = 140
  Sa growth 42C second temp = 95
  GIV-Gai inh = 103

# Carrying on:
SMILES,HCMV UL50-53 inh,Sa growth 42C,Sa growth 42C second temp,GIV-Gai inh
CCN(Cc1ccccc1)C(=O)c1ccccc1-c1nc(-c2cccc(C)c2)no1,-28,140,101,105
CC(NC(=S)NC(=O)c1cccs1)C12CC3CC(CC(C3)C1)C2 (configuration not stated),-10,66,51,.
Fc1ccc(C(NCCc2ccccc2)c2nnc(-c3ccccc3Cl)o2)cc1 (configuration not stated),-14,116,93,104
Cc1sc(-c2ccno2)cc1S(=O)(=O)NCCc1ccc(S(N)(=O)=O)cc1,-23,.,.,108
CN1CCc2c(sc3c2CN(C(=O)Nc2ccccc2)C(c2ccc(Cl)cc2)c2cccn2-3)C1 (configuration not stated),-4,.,.,113
COc1ccc(-c2cc(C(=O)N3CCN(c4ccccc4OC)CC3)c3cc(C(C)C)ccc3n2)cc1,.,95,95,102
CCN1CCN(CC(=O)NC23CC4CC(CC(C4)C2)C3)CC1,-7,125,89,101
Cn1cnnc1Sc1ccc(Cl)cc1NC(=O)c1cc2ccccc2o1,-5,101,99,.
COc1ccc(S(=O)(=O)Nc2cc(C(=O)O)ccc2N2CCN(C)CC2)cc1,-9,.,.,109
CCN(CC)C(=O)C1C(=O)N(C)C2(C)CC1c1ccccc1O2 (configuration not stated),1,93,72,100
O=C(CC1N=C2c3ccccc3N=C(SCC(=O)Nc3ccc(F)cc3)N2C1=O)NCc1ccc2c(c1)OCO2 (configuration not stated),.,68,74,102
COCn1c(-c2ccc(OC)cc2)nc2ccccc21,-4,99,76,105
CCC(C)NC(=O)c1c2c(nc3ccccc13)C(=O)N(C1CCCCC1)C2 (configuration not stated),.,89,86,100
COC(=O)C1=C(C)Nc2ccccc2S1,-13,94,74,115
O=C(CCC1N=C2c3ccccc3N=C(SCC(=O)Nc3cccc(Cl)c3)N2C1=O)NCc1ccco1 (configuration not stated),-15,105,70,104
CCOc1ccccc1-c1cc(NC(=O)Cn2ncc3c2-c2ccccc2OC3)on1,-14,.,.,98
CC(C)C(=O)n1nc(-c2ccc(Cl)cc2)nc1N,-19,.,.,98
CC(C)S(=O)(=O)c1oc(-c2ccc(F)cc2)nc1S(=O)(=O)c1ccccc1,0,1.3*,20*,108
Cc1cccc(C)c1NC(=O)c1sc(-n2nc(C)c(Cc3ccccc3)c2C)nc1C,-5,105,84,105
CC(=O)N1CCc2c(sc3c2c(=O)n(Cc2ccccc2)c(=O)n3Cc2cccc(C)c2)C1,.,92,88,102
Cc1ccc(-n2nnc(-c3nsc(NC(=O)c4ccc(C)c(C)c4)n3)c2C)cc1,.,103,104,99
O=C(O)CCC(=O)Nc1sccc1C(=O)Nc1ccccc1,-25,103,102,106
Cc1cccc2sc(NC(=O)Cn3c(=O)oc4cc(S(=O)(=O)N5CCCC5)ccc43)nc12,0,91,84,102
CSc1ncc(-c2nnc(SCc3ccccc3)n2C)n1C,-4,124,86,106
CSc1cccc(NC(=O)CCC(=O)O)c1,3,101,94,107
Cc1ccccc1OCc1nnc(SCC(=O)N(C)C)n1-c1ccccc1,7,95,106,107
CCC(Sc1nc(=O)cc(N)n1CCc1ccccc1)C(=O)Nc1nc(-c2ccccc2)cs1 (configuration not stated),-2,101,59,.
O=C(O)CSc1nc2nc[nH]c2c(=O)[nH]1,-3,.,.,103
Nc1ncnc2c1c1nc3ccccc3nc1n2CCc1ccccc1,-4,98,90,104

# Assay outcomes from PubChem BioAssay.
